# Source: PubChem BioAssay
# Yeast UUG start: modulators of yeast start codon fidelity, primary screen, whole organism, S. cerevisiae, single point, plate reader | S. cerevisiae UUG-firefly luciferase reporter, luminescence/redox ratio | activity score, % at 18.7 µM | hit rate 0.13% among 350,000;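 active means replicate mean at a twofold rise or more, about +100% in these data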;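 further: firefly luciferase made from a UUG start codon reports start codon fidelity; reporter light over untreated wells divided by growth signal over untreated wells; some hits fall short of that in this replicate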
# CSC inhib: cancer stem cell viability inhibitors, primary screen, luminescence; cancer stem cell-like cells viability; inhibition, % at 7.5 µM; hit rate 1.1% among 300,000; AID 2717, 2010;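 active means mean at 75% or more and at least half the replicates too; tested in HMLE shEcad cells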;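 further: 0% = median of negative and 100% = median of positive control wells; the first replicate is given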
# eIF4H FP inh: human eIF4H binding inhibitors, primary screen, translation initiation inhibitor project, biochemical, uHTS, fluorescence polarization; Eukaryotic translation initiation factor 4H (Homo sapiens), Q15056; eIF4H fluorescence polarization binding assay; inhibition, % at 35 µM; hit rate 0.94% among 290,000; AID 2012, 2009;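 active means 50% or more with normal probe brightness, or confirmed in later tests; about a fifth of its hits are not listed in these tables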;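 further: calls also rest on retests at 20 µM and on dose response follow-up; 0% = protein and probe with vehicle and 100% = probe without protein; strong numbers were not always called active; many hits fall short of the cut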
# PABP FP inh: PABP poly(A) RNA binding inhibitors, primary screen, biochemical, fluorescence polarization, uHTS | inhibition, % at 35 µM | hit rate 1% among 290,000 | AID 2014, 2009;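 active means 50% or more with normal probe brightness, or confirmed in later tests; about a fifth of its hits are not listed in these tables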;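 further: calls also rest on retests at 20 µM and on dose response follow-up; controls were probe without protein and protein plus probe with vehicle; some compounds called inactive have numbers as strong as hits; many hits fall short of the cut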
# Target sequence (P11940 whole entry, looked up): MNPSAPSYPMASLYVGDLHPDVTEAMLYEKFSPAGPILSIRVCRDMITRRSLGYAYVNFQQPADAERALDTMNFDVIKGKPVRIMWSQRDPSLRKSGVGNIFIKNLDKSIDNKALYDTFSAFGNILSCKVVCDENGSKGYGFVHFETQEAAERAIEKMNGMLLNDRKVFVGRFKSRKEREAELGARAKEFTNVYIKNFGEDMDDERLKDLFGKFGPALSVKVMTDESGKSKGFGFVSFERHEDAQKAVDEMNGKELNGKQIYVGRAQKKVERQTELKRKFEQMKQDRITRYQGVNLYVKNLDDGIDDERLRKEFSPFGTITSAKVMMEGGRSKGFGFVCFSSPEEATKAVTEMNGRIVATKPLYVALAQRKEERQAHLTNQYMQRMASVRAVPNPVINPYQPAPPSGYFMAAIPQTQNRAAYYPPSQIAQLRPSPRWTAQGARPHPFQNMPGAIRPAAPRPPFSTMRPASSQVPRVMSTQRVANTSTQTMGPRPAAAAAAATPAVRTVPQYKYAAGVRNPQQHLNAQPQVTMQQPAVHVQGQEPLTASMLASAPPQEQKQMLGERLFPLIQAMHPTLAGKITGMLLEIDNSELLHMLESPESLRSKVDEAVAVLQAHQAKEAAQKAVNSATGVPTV
# MT1-MMP act inh: blockers of MT1-MMP proenzyme processing, primary screen, HT1080 RFP-PRO-GFP cells, GFP/RFP fluorescence. Matrix metalloproteinase-14 (Homo sapiens), P50281. GFP/RFP ratio fluorescence, overnight; percent of plate control window, DMSO zero. GFP/RFP ratio change, % at 20 µM. hit rate 0.061% among 360,000. AID 651647, 2012;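 active means GFP/RFP ratio change of at least 30% with cell ATP level not reduced by more than half and red fluorescence within 50% of control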; further: strong numbers were not always called active
#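 Assay system: HT1080 cells carrying an RFP-PRO-GFP reporter | Dosing: Single dose of 20 µM compound, 1% DMSO final | Incubation: Cells overnight before dosing, compound overnight, 37 °C, 5% CO2 | Evaluation: GFP/RFP fluorescence ratio | Control set: DMSO and RFP-L50D-GFP cell wells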
# Rce1 inh: yeast Rce1p protease inhibitors, primary screen, biochemical, fluorescence, cell-free homogeneous. CAAX prenyl protease 2 (Saccharomyces cerevisiae (strain ATCC 204508 / S288c)), Q03530. yeast membranes, quenched prenylated peptide cleavage fluorescence. calls only. hit rate 0.27% among 290,000;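 active means fall in fluorescence gain of 50% or more versus controls, with final raw signal at or below 3038400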;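 further: plate controls were neutral control wells for no effect and wells lacking membranes for full effect; tested at 10 µM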
# Env fusion inh: inhibitors of HIV-1 Env-driven cell-cell fusion, primary screen, HeLa-JRFL effector, CEM21 target cells, luciferase. inhibition, % at 12.3 µM. hit rate 1.1% among 360,000. AID 651610, 2012;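 active means mean replicate inhibition score of at least 50 and every replicate individually at or above 50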;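 further: 0% = plate neutral controls and 100% = maraviroc near 300 nM; one replicate is shown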
# eIF4H FP inh retest: further read-out of eIF4H FP inh, marked with its call; inhibition, %; compound at 20 µM; confirmation average;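 mean of two retest wells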
# PABP FP inh retest: also measured in PABP FP inh; calls as there; inhibition, %; compound at 20 µM; confirmation repeats;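 mean of two retest wells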
# MT1-MMP act inh RFP: also measured in MT1-MMP act inh; calls as there; RFP signal change, %; measured here: RFP expression control read;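 0 = vehicle wells; hits needed this value within 50% of zero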
# * marks the source's active call; other numbers are inactive results; i = inactive; . = no result given; & = joins results of further samples.
SMILES,Yeast UUG start,CSC inhib,eIF4H FP inh,PABP FP inh,MT1-MMP act inh,MT1-MMP act inh RFP,Rce1 inh,Env fusion inh,others
COc1ccc(NC(=O)c2cc([N+](=O)[O-])nn2Cc2ccccc2)c(C)c1,9,-10,2,-5,3,-3,i,.,
COc1cccc(C(=O)OCC(=O)Nc2nnc(-c3ccccc3)o2)c1,.,-3,.,.,2,3,i,-9,
CCOC(=O)/C=C1\SCC(=O)N1Cc1ccc(Br)cc1,-2,3,-11,-6,3,8,i,-94,
COc1cc(CN(C)CC2CCCN(CCc3ccc(F)cc3)C2)c(Cl)cc1O (stereo not given),-13,26,3,-3,-2,-1,i,0,
CCn1cc(C(=O)N[C@@H](CCSC)C(=O)NCCN2CCOCC2)c(=O)c2cc3c(cc21)OCO3,-11,-4,3,4,4,2,i,-4,
CC(C)(C)NC(=O)C(c1ccco1)N(Cc1ccc2c(c1)OCO2)C(=O)c1snc(C(N)=O)c1N (stereo not given),-7,0,3,14,-4,-4,i,11,
Nc1c([N+](=O)[O-])cc(-c2cnc[nH]2)cc1[N+](=O)[O-],.,0,-4,4,11,-1,i,-6,
CC1(C(=O)NS(=O)(=O)Cc2cccc(Cl)c2)CCN1C(=O)Cc1ccc(Cl)cc1Cl (stereo not given),-8,.,.,.,0,4,.,3,
COc1ccc(C(=O)NCc2nnc(SC)n2Cc2ccccc2)cc1,.,-6,-7,-10,0,0,i,2,
O=C(NCCCN1CCN(c2cccc(Cl)c2)CC1)C1CCC(=O)N1Cc1ccccc1Cl (stereo not given),0,.,-3,-3,2,-3,i,.,
CC1(C)C(=O)Nc2ccccc2N1C(=O)COC(=O)c1cccs1,-20,-9,.,.,-2,2,.,17,
COc1ccc(/C=C/C(=O)Nc2ccccc2)cc1S(=O)(=O)N1CCOCC1,.,15,-13,-10,1,-12,.,0,
COc1ccc(-c2[nH]ncc2CN(Cc2nccn2C)C(C)C)c(F)c1,-11,-16,-3,-1,-4,-4,i,38,
CCN1C(=O)N(c2cccc3ccccc23)C(C)=CC1(C)C,2,5,-3,-2,-4,-7,i,.,
CN(C)C(=O)c1c2c(nc3ccccc13)CCCC2,.,-2,-6,4,-6,-1,i,1,
O=C(O)CSc1nnc(COc2cccc3cccnc23)n1-c1ccc(Cl)cc1,.,-15,-7,-2,-3,0,i,-3,
COc1ccccc1-n1c(SCC(=O)N2CCOCC2)nc(O)c(Cc2ccccc2)c1=O,-3,-11,-3,6,-3,0,i,-54,
COc1cc(OC)cc(OC2(C)CCN(Cc3ccc(OC(C)C)cc3)C2)c1 (stereo not given),7,.,.,.,2,2,.,13,
COc1ccc(NC(=O)N(C)C[C@H]2Oc3c(NS(=O)(=O)c4cccs4)cccc3C(=O)N([C@H](C)CO)C[C@@H]2C)cc1,6&-6,11,.,.,5,5,.,21,
COc1cc(/C=N/NC(=O)C[n+]2ccccc2)cc(OC)c1OC(C)=O,.,8,4,-3,-4,0,i,-6,
CCOC(=O)/C(C#N)=C/c1c(OCC)n(CC)c2ccccc12,.,2,0,-2,1,-4,i,-5,
CSc1nc2ccccc2n1CC(=O)Nc1c(C)n(C)n(-c2ccccc2)c1=O,1,-7,4,14,7,1,i,.,
COc1ccc2nc(Nc3nc(CSc4nc5ccccc5[nH]4)cc(=O)[nH]3)nc(C)c2c1,-17,66,-8,2,2,-17,i,86*,
CNC(=O)NC(=O)C(C)OC(=O)CCCSc1nc2ccccc2s1 (stereo not given),-29,-11,-9,-4,1,3,i,0,
Nc1ccn([C@@H]2O[C@H](C(=O)N(CCC3=CCCCC3)CC3CC3)[C@@H](O)[C@H]2O)c(=O)n1,-1,.,.,.,6,1,.,16,
CCOC(=O)/C(C#N)=C/c1cn(CCC(=O)O)nc1-c1ccc(F)cc1,.,-5,-5,-14,-2,3,.,16,
CCOC(=O)C1CCN(C(=O)CCc2nnc3ccc(NCCCN4CCCC4=O)nn23)CC1,-10,.,4,-6,4,3,i,6,
Cc1ccc(NC(=S)N(Cc2ccc(Cl)cc2)Cc2ccc(C(=O)O)cc2)cc1Cl,-24,11,2,30,4,-1,i,10,
Cc1onc(-c2ccccc2)c1C(=O)Nc1nc(-c2ccc(F)c(F)c2)cs1,-25,-6,-2,-5,-5,-8,i,.,
N#CCSc1nnc(-c2ccc3c(c2)OCO3)o1,.,14,22,0,-2,5,i,9,

# 2 successive compounds out of the list so far, for reference:
SMILES,Yeast UUG start,CSC inhib,eIF4H FP inh,PABP FP inh,MT1-MMP act inh,MT1-MMP act inh RFP,Rce1 inh,Env fusion inh,others
O=C(O)CSc1nnc(COc2cccc3cccnc23)n1-c1ccc(Cl)cc1,.,-15,-7,-2,-3,0,i,-3,
COc1ccccc1-n1c(SCC(=O)N2CCOCC2)nc(O)c(Cc2ccccc2)c1=O,-3,-11,-3,6,-3,0,i,-54,

# Next section.
SMILES,Yeast UUG start,CSC inhib,eIF4H FP inh,PABP FP inh,MT1-MMP act inh,MT1-MMP act inh RFP,Rce1 inh,Env fusion inh,others
O=C(CN1CCN(S(=O)(=O)c2ccccc2)CC1)NCc1ccccc1,-3,2,6,-9,-1,1,i,4,
COc1ccc(/C=N/NC(=O)c2ccn[nH]2)cc1COc1ccc(Cl)cc1,-11,25,3,-13,18,-5,i,-173,
CCOc1ccc(Nc2nc(N)nc(CN(C)C3CCCCC3)n2)cc1,-25,5,-7,19,0,4,i,23,
Cc1cc2oc(=O)cc(CN(C)Cc3cccc(F)c3)c2cc1Cl,-8,9,0,0,-3,-2,i,32,
O=C(OCc1ccccc1)/C(=C/c1cccc([N+](=O)[O-])c1)NC(=O)c1ccco1,-1,5,-13,-8,7,2,i,9,
CCC(C)N(C(=O)Cn1c(=O)cnc2ccccc21)C1CCS(=O)(=O)C1 (stereo not given),-5,.,.,.,4,0,i,-92,
CCOC(=O)c1ccc(N/N=C/c2cc(Br)cc([N+](=O)[O-])c2O)cc1,-23,-2,12,5,19,-8,i,7,
Cc1ccc(-c2cc(-c3ccccc3)nc(N)c2C#N)o1,3,6,9,6,-1,2,i,8,
O=C(CCCN1C(=O)NC2(CCCC2)C1=O)Nc1cccc(S(=O)(=O)N2CCOCC2)c1,-6,.,.,.,3,0,.,-14,
CC(NCCCOc1cccc2ccccc12)c1ccccc1 (stereo not given),-12,.,9,4,-6,-3,i,75*,
CC(C)(C)C1CCc2c(sc(NC(=O)C3CC=CCC3C(=O)O)c2C#N)C1 (stereo not given),-6,44,9,8,2,-1,i,-11,
CC(C)CN(C(=O)c1ccc(C(F)(F)F)cc1)c1c(N)n(CC(C)C)c(=O)[nH]c1=O,0,-9,-18,-11,-1,2,i,-2,
CCCCn1c(-c2cccc3ccccc23)nc2cc3[nH]c(=O)c(C(C)C)nc3cc21,-16,64,32,32,-1,-8,i,-9,
CCOc1ncccc1C(=O)OCc1ccc(C(=O)OC)o1,-17,-31,9,2,0,3,i,.,
CC1(C)CC(N2CCCC2)=CC(=[N+]2CCCC2)C1,-18,18,-2,-2,-9,-24,i,59*,
CC(C)NC(=O)CC1C(=O)NCCN1CC(c1ccccc1)c1ccccc1 (stereo not given),4,7,-1,-2,-7,1,i,-12,
CC(C)C(C)NC(=O)CN1C(=O)NC2(CCCc3ccccc32)C1=O (stereo not given),.,-4,1,-4,3,7,i,14,
CCC(OC(=O)c1ccco1)C(=O)NC1CCCC1 (stereo not given),12,-6,-4,1,-1,0,i,-28,
CCC1(CC)NC(=O)N(CC(=O)Nc2ccc(S(=O)(=O)N3CCOCC3)cc2)C1=O,.,-12,-4,-3,0,4,i,3,
CCN1CCN(c2nc(S(=O)(=O)c3ccc(C)cc3)c(Cl)s2)CC1,.,29,5,-6,0,-7,i,30,
COc1cc(CNCCSc2nnnn2C)cc(Br)c1OCc1ccccc1,-7,-7,2,-4,2,-2,i,10,
CCOC(=O)C(C(C)=O)c1c(Br)c(O)c(O)c2c(C(=O)c3ccc(C)cc3)coc12 (stereo not given),-30,103*,4,10,-15,-21,i,108*,
CCCc1cc(=O)[nH]c(Nc2ccc(O)cc2)n1,1,-6,15,12,1,1,i,-26,
O=C(O)c1ccc(/C=C2\SC(=S)N(NC(=O)c3ccc(Br)cc3)C2=O)cc1,-17,-16,.,.,9,10,i,-2,
O=S(=O)(Nc1ccc(Br)cn1)c1ccc(Cl)s1,10,16,-15,-7,-3,1,i,6,
Cc1ccc(CNC(=O)Cn2ccc3ccccc3c2=O)o1,-5,5,-12,7,7,3,i,.,
Cc1ccc(Cn2c(C(C)Nc3nc(-c4ccc(F)cc4)cs3)nc3cc(C(=O)NCCCO)ccc32)cc1 (stereo not given),-12,7,.,.,4,-9,i,5,
CC(CCn1cccn1)NC(=O)c1cc(COc2ccc(F)cc2F)on1 (stereo not given),-21,0,4,-4,-1,0,i,11,
O=C(NC1CCCC1)C1CCCN(S(=O)(=O)c2ccc(-n3cnnn3)cc2)C1 (stereo not given),-4,5,2,2,4,-6,i,-21,
O=S(=O)(CCSc1ccc(C(F)(F)F)cn1)c1ccc(Cl)cc1,.,2,0,-8,3,0,i,2,
Nn1c(SCC(=O)Nc2ccc(Oc3ccccc3)cc2)nnc1C1CC1,.,.,-1,1,2,2,i,8,
N#CCn1c2ccccc2c2nc3ccccc3nc21,.,-4,2,8,-2,-2,i,-35,
NC(=O)c1cccc2c(=O)oc3ccccc3c12,-8,1,-8,6,-10,5,i,.,
Cc1ccc(-c2nnn(CCC(=O)NC(C)(C)C)n2)cc1,.,-9,4,-6,-7,-4,i,-72,
CCOC(=O)C1=C(CN2CCN(C(=O)OCC)CC2)NC(=O)NC1c1ccc2c(c1)OCO2 (stereo not given),.,-5,4,5,3,-1,i,4,
CCCCN(C)C(=O)c1sc(=O)n(Cc2c(C)noc2C)c1C,-7,.,.,.,3,1,.,-4,
Cc1onc(-c2ccccc2)c1C(=O)N(C)CC(=O)Nc1ccc(F)c(F)c1F,-9,-13,.,.,-2,2,.,1,
C(=N\n1cnnc1SCc1ccccc1)/c1ccco1,-22,9,7,22,-3,-3,i,.,
O=C(NNC1=NS(=O)(=O)c2ccccc21)c1ccc([N+](=O)[O-])cc1,-41,-8,-4,-2,3,4,i,-6,
C[C@H](NC(N)=O)C(=O)Nc1ccc(N2CCOCC2)c(S(=O)(=O)Nc2ccc(Cl)cc2)c1,-3,.,.,.,-2,6,.,5,
COc1ccc(/C=N/Nc2ccccn2)c(OC)c1OC,.,5,1.9*,61*,5,0,i,-26,eIF4H FP inh retest=94*;PABP FP inh retest=92*
O=C(NC1CC1)c1sc2cc(Cl)ccc2c1Cl,-9,8,.,.,-6,0,i,-232,
Cc1ccc(S(=O)(=O)NNC(=O)c2ccoc2C)cc1,-15,-2,-6,2,-3,-1,i,-4,

# Some of the compounds tested; the hit share may differ from the screen's.
